VACV E9 pol inh = vaccinia E9 polymerase processive synthesis inhibitors, primary screen, biochemical, absorbance; Vaccinia virus DNA polymerase (E9) processive complex; in vitro processive DNA synthesis, absorbance read-out; hits give low values; some inactives read as strong as hits; normalized absorbance, % (no concentration beside the values); actives 0.94% (n = 46,000); AID 493162, 2011;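 active = replicate mean up to 90% and picked by the depositor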;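 note: 100% = median of the test wells of a plate; 100 nL library stock went into each well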
* marks the source's active call; other numbers are inactive results.

A first look:
#	Compound	VACV E9 pol inh
1	CC(=O)Nc1ccc2nc(Nc3nc4ccc(C(C)C)cc4s3)sc2c1	103
2	COc1ccc(C2=NN(S(C)(=O)=O)C(c3ccccc3OC)C2)cc1 (stereo not given)	100
3	O=C(c1ccccc1)c1ccccc1OCc1nc2ccccc2s1	100
4	c1ccc(-c2nnc3sc(-c4ccc5c(c4)OCO5)nn23)cc1	100
5	CC(C)(C)C(=O)NCc1nc2ccccc2n1Cc1ccccc1F	98
6	CC(C)(C)n1nc2c(c1NC(=O)CC1CCCCC1)CS(=O)C2 (stereo not given)	99
7	CCN(CC)C(=O)CSc1nnc(-c2ccccc2Cl)o1	100
8	CC1CN(C(=O)CSc2nc(-c3ccco3)cc(C(F)(F)F)n2)CC(C)O1 (stereo not given)	105
9	O=S(=O)(NCc1csc(-c2cccnc2)n1)c1ccc2c(c1)CCCC2	100
10	CC(C)C(C1=C(O)CC(C)(C)CC1=O)C1C(=O)CC(C)(C)CC1=O (stereo not given)	100
11	c1ccc(N2CCN(Cc3cn4cccnc4n3)CC2)cc1	96
12	Cc1ccc(C(=O)CN(Cc2ccccc2)c2ccccc2)cc1	98
13	CC(OC(=O)c1ccc(C#N)cc1)C(=O)Nc1cccc(C(F)(F)F)c1 (stereo not given)	106
14	CCn1c(C(=O)O)c(CNCc2ccccc2)c2ccc(OC)cc21	102
15	COc1cc(OC)cc(C(=O)OCc2nc3ccccc3s2)c1	92
16	CCOC(=O)c1cnc2ccccc2c1NCCO	95

The listing, from the first entry:
#	Compound	VACV E9 pol inh
1	CC(=O)Nc1ccc2nc(Nc3nc4ccc(C(C)C)cc4s3)sc2c1	103
2	COc1ccc(C2=NN(S(C)(=O)=O)C(c3ccccc3OC)C2)cc1 (stereo not given)	100
3	O=C(c1ccccc1)c1ccccc1OCc1nc2ccccc2s1	100
4	c1ccc(-c2nnc3sc(-c4ccc5c(c4)OCO5)nn23)cc1	100
5	CC(C)(C)C(=O)NCc1nc2ccccc2n1Cc1ccccc1F	98
6	CC(C)(C)n1nc2c(c1NC(=O)CC1CCCCC1)CS(=O)C2 (stereo not given)	99
7	CCN(CC)C(=O)CSc1nnc(-c2ccccc2Cl)o1	100
8	CC1CN(C(=O)CSc2nc(-c3ccco3)cc(C(F)(F)F)n2)CC(C)O1 (stereo not given)	105
9	O=S(=O)(NCc1csc(-c2cccnc2)n1)c1ccc2c(c1)CCCC2	100
10	CC(C)C(C1=C(O)CC(C)(C)CC1=O)C1C(=O)CC(C)(C)CC1=O (stereo not given)	100
11	c1ccc(N2CCN(Cc3cn4cccnc4n3)CC2)cc1	96
12	Cc1ccc(C(=O)CN(Cc2ccccc2)c2ccccc2)cc1	98
13	CC(OC(=O)c1ccc(C#N)cc1)C(=O)Nc1cccc(C(F)(F)F)c1 (stereo not given)	106
14	CCn1c(C(=O)O)c(CNCc2ccccc2)c2ccc(OC)cc21	102
15	COc1cc(OC)cc(C(=O)OCc2nc3ccccc3s2)c1	92
16	CCOC(=O)c1cnc2ccccc2c1NCCO	95
17	Cc1cc(O)ccc1Cl	100
18	Cc1ccc(N2C(=O)CC2(C(=O)NC2CCCCC2)c2cccs2)cc1 (stereo not given)	100
19	CC(O)c1nc2ccccc2n1CCC1CCCCC1 (stereo not given)	100
20	Cc1cccc(C)c1NC(=O)N(Cc1ccccc1)C(=O)CC#N	95
21	NC(=O)c1cc(Cl)c(Cl)cc1C(N)=O	79
22	Cc1[nH]c2ccccc2c1C(c1ccccn1)N1CCCCC1 (stereo not given)	99
23	COC(=O)c1ccc(C(=O)NC(=S)Nc2nc3c(s2)CCCC3)cc1	101
24	CC(=O)Nc1ccc(Nc2cc(C)c3ccccc3n2)cc1	98
25	O=C(O)COCC(=O)Nc1ccc2c(c1)oc1ccccc12	95
26	O=C(/C=C\c1ccc(-c2ccc(F)cc2)o1)Nc1ccc(N2CCOCC2)cc1	102
27	CC(=O)O[C@@H]1O[C@@H]2CO[C@@H](c3ccccc3)O[C@H]2[C@H](OC(C)=O)[C@H]1OC(C)=O	104
28	CCOc1ccc(C2CC(=O)NC(SCC(=O)NC3CCCCC3)=C2C#N)cc1 (stereo not given)	101
29	Nc1ccc(N2CCOCC2)c(Br)c1	99
30	COc1ccc2cc(CCNC(=O)CCCc3ccccc3)c(=O)[nH]c2c1	102
31	O=C(CCCN1C(=O)/C(=C/c2ccccc2)SC1=S)Nc1ccccc1O	101
32	COC(=O)C1=C(N)OC(CC#N)=C(C(=O)OC)C1c1ccc(OC)c(OC)c1 (stereo not given)	101
33	CCCC12CC3CC(CC(N)(C3)C1)C2	99
34	Cc1[nH]n(-c2ccccc2)c(=O)c1Sc1ccccc1	95
35	O=C(CCC(=O)c1ccccc1)NCc1ccccc1	67*
36	CCOC(=O)c1c(C)oc2c1c(C=NCC1CCCO1)c(O)c1ccccc12 (stereo not given)	98
37	CCN(Cc1nc(-c2ccc(C)cc2)no1)C(=O)Nc1ccccc1OC	102
38	OCCCc1nc2ccccc2n1CCc1ccccc1	100
39	Cc1ccc(NCC(O)c2ccc(Cl)cc2)cc1 (stereo not given)	102
40	O=C(O)/C=C\C(=O)Nc1cccc(C(F)(F)F)c1	101
41	COc1cc([C@@H]2c3cc4c(cc3[C@@H](OC3OC5COC(C)OC5C(O)C3O)[C@H]3COC(=O)[C@H]23)OCO4)cc(OC)c1O (stereo not given in full)	100
42	Cc1c(Cl)cccc1NC(=O)c1cccs1	98
43	Cc1ccc(CNc2nc3c(S(=O)(=O)c4cc(C)ccc4C)nnn3c3ccccc23)cc1	101
44	CC1CCCCC1NS(=O)(=O)c1ccc(S(=O)(=O)N2CCN(c3ncccn3)CC2)cc1 (stereo not given)	100
45	O=C1c2ccccc2C(=O)N1CCn1c(=O)oc2ccccc21	100
46	CCCNC(=O)c1cc(=O)n(Cc2ccc(C)cc2)c2ccccc12	88
47	COc1ccccc1NC(=O)Cn1cnc2sc(C(=O)OC(C)C)c(C)c2c1=O	99
48	Cc1ccc(C)c(CSC2=NCCN2C(=O)COc2ccccc2)c1	101
49	Cc1c(S(=O)(=O)c2ccc(Cl)cc2)csc1C(=O)Nc1ccc(F)cc1F	103
50	Clc1ccc(-c2csc(Nc3ncccn3)n2)c(Cl)c1	104
51	COc1ccc2cc(S(=O)(=O)N3CCN(Cc4ccccc4)CC3)ccc2c1	100
52	Cc1cc(C2C(C#N)=C(N)N(c3ccccc3Cl)C3=C2C(=O)CC(c2ccccc2)C3)c(C)s1 (stereo not given)	100
53	O=C(/C=C/c1cccs1)Nc1nc2ccc(Br)cc2s1	100
54	Cc1ccc(NC(=O)C2CCCN(S(=O)(=O)c3ccc4nc(-c5ccccc5)[nH]c4c3)C2)cc1 (stereo not given)	102
55	CCCOC(=O)c1ccc(-n2nc(C(F)(F)F)c3c(C)cc(=O)oc32)cc1	95
56	O=c1c2c3c(sc2ncn1Cc1ccccc1)CCCC3	102

New compounds follow
#	Compound	VACV E9 pol inh
57	O=S(=O)(c1ccc(Cl)cc1)N1CCSC1c1ccco1 (stereo not given)	103
58	CNc1cc(=O)n(C)c(=O)n1C	106
59	COc1ccc2c(c1)c(C(=O)O)c(C)n2CCc1ccc(OC)c(OC)c1	100
60	C=CCN1C(=O)C(O)(CC(=O)c2ccccc2)c2ccccc21 (stereo not given)	100
61	COc1ccc([C@H]2NC(=O)C(=C=[N-])C(=O)[C@@H]2[n+]2ccccc2)cc1	100
62	CC[N+](C)(CC)Cc1cc2ccccc2c2c1COC2	98
63	Cc1ccsc1C1CC(=O)NC(SCC(=O)OCc2ccccc2)=C1C#N (stereo not given)	95
64	Nc1c(C(=O)N2CCCCC2)sc2nc(-c3cccs3)cc(C(F)(F)F)c12	97
65	CCN1CCS/C1=C\C=C\C1=[N+](CC)CCS1	100
66	COc1ccc(-c2noc(CC(=O)N(C)CCC#N)n2)cc1	99
67	COc1ccc(-c2noc(CSCC(=O)Nc3ccc(C(C)C)cc3)n2)cc1OC	111
68	CN1C(=O)/C(=C\c2ccccc2)Sc2ccc(C(=O)NCCc3ccccc3)cc21	103
69	O=C(O)C1CCN(S(=O)(=O)c2ccccc2)CC1	102
70	Cc1c(CNCCC2=CCCCC2)c(C(=O)O)c(C)n1Cc1cccc(Cl)c1	92
71	Clc1ccc2oc(-c3ccccc3)cc(=NCCCN3CCOCC3)c2c1	44*
72	CNC(=O)c1cc(Br)c(C)c(C)c1C	100
73	COc1ccccc1C1(C#N)C(=O)Nc2ccccc21 (stereo not given)	100
74	Fc1ccccc1/C=C1\CCCC2=C1Nc1ncnn1C2c1ccccc1F (stereo not given)	103
75	Cc1cc(C)c(C#N)c(SCC(O)COc2ccc(Cl)cc2)n1 (stereo not given)	105
76	Cc1cc(-c2nc(-c3ccnn3C(=O)Nc3cccc(Cl)c3)cs2)no1	102
77	CC12CCC(C(=O)N3CCN(Cc4ccccc4)CC3)(OC1=O)C2(C)C (stereo not given)	103
78	Cc1ccc(S(=O)(=O)N2CCC(C(=O)O)CC2)s1	100
79	Cc1ccc(S(=O)(=O)N=C2C=CC(=NS(=O)(=O)c3ccc(C)cc3)C=C2)cc1	100
80	CCc1ccccc1NS(=O)(=O)c1ccc(-n2cccn2)cc1	95
81	Cc1cccc(C)c1NC(=O)C1NC(=O)CC1c1ccccc1 (stereo not given)	101
82	CCOC(=O)C1C(=O)C=C(c2ccc(F)cc2)CC1c1ccc(CC)cc1 (stereo not given)	103
83	CCC1=NN(C(=O)C(C)C)C(O)(c2ccc(Br)cc2)C1 (stereo not given)	100
84	CCOC(=O)c1ccc(N2CC(C)(C)C2=O)cc1	111
85	Cc1cc(NCCCN2CCOCC2)nc(-c2ccccc2O)n1	90
86	COc1ccccc1NC(=O)c1cc2ccccc2oc1=N	88
87	CCCCCCCCCCC1=C(C)C(=O)C(OC)=C(OC)C1=O	102
88	C=C1SC(=Nc2ccccc2Cl)N(C(=O)c2cc(OC)c(OC)c(OC)c2)C1(C)C	101

Looked up by structure from the list above (two):
#	Compound	VACV E9 pol inh
83	CCC1=NN(C(=O)C(C)C)C(O)(c2ccc(Br)cc2)C1 (stereo not given)	100
86	COc1ccccc1NC(=O)c1cc2ccccc2oc1=N	88

(cont.)
#	Compound	VACV E9 pol inh
89	CCOc1ccc(CCNc2nc(-c3ccc(OC)c(OC)c3)no2)cc1	109
90	O=C(NCCCN1CCCCC1)c1ccc2nc(N3CCCCC3)sc2c1	97
91	Cc1ccc2oc(-c3ccccc3)cc(=NCCN3CCOCC3)c2c1	72*
92	CSc1c2ccccc2cc[n+]1C	100
93	COc1ccc(C(=O)OCc2ccccn2)cc1	100
94	COC(=O)c1c(NC(=O)c2ccc(Cl)s2)sc2c1CCC2	100
95	COc1ccc(NC(=O)c2cnn(-c3ccccc3)c2NC(=O)c2ccccc2F)c(OC)c1	100
96	COc1ccc(-c2nc3c(C#N)cnn3cc2C)cc1F	114
97	Cc1cc(C)cc(NS(=O)(=O)c2ccc3[nH]cc(C(=O)NCCC4=CCCCC4)c(=O)c3c2)c1	101
98	COc1ccccc1NC(=O)c1c(C)nn(-c2ccccc2)c1Cl	101
99	Cn1c(SCc2ccccc2)nc2c([nH]c3ccccc32)c1=O	97
100	O=C(Nc1nc(-c2ccc(OC(F)(F)F)cc2)no1)NN1CCCCC1	101
101	Cc1sc2nc(CCl)[nH]c(=O)c2c1-c1ccccc1	101
102	CC1=[N+](S(=O)(=O)c2ccc(Cl)cc2)CCN1	94
103	CCOC(=O)c1c(NC(=O)NC(C)(C)C)sc2c1CCN(C)C2	100
104	Cc1ccc(CS(=O)Cc2ccc(C(=O)NCc3ccccc3)o2)cc1 (stereo not given)	96
105	Cc1noc(C)c1C(=O)Oc1ccc(-c2n[nH]nc2C#N)cc1	100
106	CCCOc1cccc(NC(=O)c2occc2C)c1	108
107	Cc1cc2cc(CNC(=O)Nc3cccc(Cl)c3)ccc2n1C	101
108	CCOC1CC(C)(C)NC(=S)N1 (stereo not given)	100
109	O=C(c1ccc(N2CCCC2=O)cc1)N1CCCC1	101
110	N=C1/C(=C/c2ccc(F)cc2)C(=O)N=C2SC(C(F)(F)F)=NN12	100
111	Cc1ccc(NC(=O)CN2C(=O)CSc3ncccc32)cc1	93
112	CC1=NN(c2nc3ccccc3s2)C(O)(C(F)(F)F)C1 (stereo not given)	100
113	COc1cccc(Nc2ccc(C(=O)O)cc2N)c1	104
114	OC(CN1CCc2ccccc2C1)C(F)(F)F (stereo not given)	102
115	CC(=O)Nc1ccc2nc(NC(=O)c3cccs3)sc2c1	103
116	O=C(NCCc1ccccn1)c1ccccc1OCc1ccccc1	98
117	O=S(=O)(c1ccc(Cl)cc1)N(CCc1ccccn1)c1ccc(Cl)cc1	110
118	COc1ccc(NC(=O)Nc2ccc(N3CCCC3=O)cc2)cc1OC	98
119	O=C1CC(c2nc3ccccc3[nH]2)CN1Cc1ccccc1 (stereo not given)	99
120	CN(Cc1ccccc1)C(=O)c1ccccc1Cl	101
121	CCOc1ccc(CCNC(=O)C2CCN(S(C)(=O)=O)CC2)cc1OCC	110
122	N#CC(C#N)=Cc1ccc(O)cc1	98
123	Cc1c(C(=O)NC2CCCc3ccccc32)oc2ccc(S(=O)(=O)N3CC(C)CC(C)C3)cc12 (stereo not given)	95
124	O=C(NCC1(c2ccccc2)CCCC1)c1ccc(Cl)cc1	102
125	CCC(C)NC(=O)Cn1c(=O)n(-c2ccc(Cl)c(Cl)c2)c(=O)c2c(C)c(C)sc21 (stereo not given)	100
126	COc1cc(C)c2c(=O)cc(-c3ccccc3)oc2c1	98
127	Cc1ccc(-c2noc(CNc3ccc(Oc4ccccc4)cc3)n2)cc1	99
128	CC(C)(CN=C1NS(=O)(=O)c2ccccc21)CNC(=O)c1ccccc1Cl	93
129	Clc1ccc(-c2csc3c4ncnc-4ncn23)cc1	100
130	COc1ccc(C(=O)Oc2ccc(Cl)c3cccnc23)cc1OC	97
131	O=C(Nc1cccnc1)c1ccccc1O	101
132	Cc1ccc(-c2csc3nc[nH]c(=S)c23)cc1	85
133	Cc1cc(C)cc(OCC(=O)OCC(=O)NC23CC4CC(CC(C4)C2)C3)c1	108
134	Cc1ccc2c(Sc3ccc(Cl)cc3)c(C(=O)O)[nH]c2c1	57*
135	Cn1c(CCCO)nc2ccccc21	104
136	CSc1sc(C(=O)NN)cc1S(=O)(=O)C(C)C	102

Screens from PubChem BioAssay.

These rows are one share of the data (hit frequency here may not be typical).
